High-throughput results: PubChem BioAssay, National Center for Advancing Translational Sciences (NCATS)
CtBP-E1A inh – qHTS Assay for Inhibitors of the CtBP/E1A Interaction | CtBP / adenovirus E1A interaction (AlphaScreen) | AlphaScreen GST-E1A/His-CtBP binding, 1536-well; active compounds read low; control for the full effect not named in the record | activity change, % (no concentration beside the values) | actives 0.49% (n = 340,000); in the data active means activity change below about -65%; inconclusive means about -30% to -65%; inactive means above about -30%; note: % is set by controls: 0 for no effect and ±100 for the full control effect
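Protein mix (5X: 125 nM each GST-E1A, His-CtBP) was incubated with pinned compound 2 h at 37 deg C in dark, in 50 mM Tris pH 8.0 buffer with 300 mM NaCl. Glutathione donor and nickel acceptor beads followed; AlphaScreen signal read after 1 h.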
PINK1 modulator – A Quantitative High throughput Screen to Identify Chemical Modulators of PINK1 Expression; PINK1 immunofluorescence, high-content cytometry, 24 h; actives 0.2% (n = 410,000); Potency, µM (series often up to 76.6 µM), for inactives: at the top dose activation (PINK1 increase), usual class: activators; active = well fitted activation curve with a large enough effect; inconclusive = small, poorly fitted or top-dose-only effect; inactive = flat fitted curve, though single readings scatter; cell line not stated here;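 note: potency is the fitted concentration of half-maximal effect; % of control where 0% means no effect; nearly all actives have a fitted effect of over 65% in size; a mitochondrial uncoupler was the plate control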
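Cells are seeded, rested 12 hours, then given compound at five concentrations or DMSO for 24 hours. After fixation, blocking and antibody staining, PINK1 amount and mitochondrial localization are scored; CCCP serves as control.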
TRPV1 potentiator – HTS Assay for Compounds that Act as Potentiators of the Vanilloid Receptor 1; actives 0.02% (n = 320,000); TRPV1-expressing cells, Fluo-8 calcium influx, capsaicin EC20 potentiation; host cell line not named in the record; control for the full effect not named in the record; Transient receptor potential cation channel subfamily V member 1 (Homo sapiens), Q8NER1; potentiation, % at 8.33 µM; active means potentiation above 80%; inconclusive means 30% to 80%; inactive means below 30%; note: 0% is about no effect
Target sequence (Q8NER1 whole entry, looked up): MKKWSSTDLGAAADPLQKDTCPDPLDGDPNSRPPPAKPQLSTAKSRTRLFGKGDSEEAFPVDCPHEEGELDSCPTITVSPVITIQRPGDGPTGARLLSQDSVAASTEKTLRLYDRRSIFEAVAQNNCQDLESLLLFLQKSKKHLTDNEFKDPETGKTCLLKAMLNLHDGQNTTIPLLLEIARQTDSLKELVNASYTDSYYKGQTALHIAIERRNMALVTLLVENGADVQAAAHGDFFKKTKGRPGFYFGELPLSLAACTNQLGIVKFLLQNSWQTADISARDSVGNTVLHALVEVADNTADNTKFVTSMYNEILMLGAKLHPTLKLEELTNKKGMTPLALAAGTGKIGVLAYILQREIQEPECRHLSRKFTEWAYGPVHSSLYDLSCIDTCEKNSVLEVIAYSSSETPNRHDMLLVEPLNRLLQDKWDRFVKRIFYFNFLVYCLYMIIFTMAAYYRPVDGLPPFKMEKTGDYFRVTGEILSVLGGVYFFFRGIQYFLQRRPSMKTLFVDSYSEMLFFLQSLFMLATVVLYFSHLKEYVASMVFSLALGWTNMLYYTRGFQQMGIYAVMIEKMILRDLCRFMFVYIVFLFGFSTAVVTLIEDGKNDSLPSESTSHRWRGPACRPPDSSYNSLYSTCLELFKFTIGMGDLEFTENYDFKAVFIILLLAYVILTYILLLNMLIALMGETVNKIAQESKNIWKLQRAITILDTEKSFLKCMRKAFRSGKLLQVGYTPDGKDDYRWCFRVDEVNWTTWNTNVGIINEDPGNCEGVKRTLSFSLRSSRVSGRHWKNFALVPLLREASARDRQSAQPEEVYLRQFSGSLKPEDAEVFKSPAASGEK
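TRPV1-expressing cells were cultured overnight at 35.5C and loaded with Fluo-8 calcium dye for 40 to 90 min at room temperature. After a 10 s baseline, compound was added and calcium influx was read kinetically for 3 min (ex 480/em 520 nm).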
Six1-Eya2 inh – qHTS Assay for Inhibitors of the Six1/Eya2 Interaction; Homeobox protein SIX1 (Homo sapiens) + Protein phosphatase EYA2 (Homo sapiens), …; AlphaScreen GST-Six1/His-Eya2 binding, biochemical; active compounds read low; control for the full effect not named in the record; activity change, % (test concentration not listed); actives 0.56% (n = 360,000); in the data active = activity change below about -65%; inconclusive = about -30% to -65%; inactive = above about -30%; note: % is set by controls: 0 for no effect and ±100 for the full control effect
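GST-Six1 + His-Eya2 (5X stock: 250/500 nM); Tris pH 8.0, 300 mM NaCl, 0.05% BSA, 0.02% Tween 20; GSH donor/Ni acceptor beads; 1 h 37 °C dark; AlphaScreen readout.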
D2 ag – Beta-Arrestin HTS for Positive Allosteric Modulators of the Human D2 Dopamine Receptor: Agonists; D(2) dopamine receptor (Homo sapiens), P14416; DiscoveRx PathHunter D2 beta-arrestin, luminescence, 90 min; 100% = 57 uM dopamine signal; activation, % (concentration not given with the values); actives 0.084% (n = 360,000); AID 624465, 2012; in the data active = activation above about 40%; inconclusive = about 15% to 40%; inactive = below about 15%; note: compound concentration not given in the record; the text of the record calls up to 30% inactive
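DiscoveRx PathHunter D2 beta-arrestin cells (2,100/well) attached overnight, then compound-stimulated 90 min at 37 C in HBSS/10 mM HEPES/0.1% Tween-20 buffer; beta-galactosidase complementation read by luminescence after 1 h at ambient temperature. Dopamine 57 uM final (EC100) as control.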
Sfp inh – qHTS Assay for Inhibitors of Bacillus subtilis Sfp phosphopantetheinyl transferase (PPTase). 4'-phosphopantetheinyl transferase ffp (Bacillus subtilis), Q9F4F7. Biochemical Sfp PPTase activity, qHTS. Potency, µM, for the others: max response, negative = inhibition, actives largely listed as inhibitors. actives 3.5% (n = 310,000); active = well fitted inhibition curve with a large enough effect; inconclusive = small, poorly fitted or top-dose-only effect, or another doubt; inactive = no such curve, though single readings can be large or run the other way;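 note: the enzyme is Sfp with the accession as filed and its product quenches rhodamine fluorescence; potency is the fitted concentration of half-maximal effect; 0% = enzyme reaction without inhibitor and -100% = no enzyme wells; top concentration of the series not given in the record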
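With Hepes-Na pH 7.6 buffer containing 10 mM MgCl2, Sfp (15 nM) modified BHQ-2-YbbR (12.5 uM) using rhodamine-CoA (5 uM). Two reads 30 minutes apart at 525/598 nm yielded each well's rate.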
D2 PAM – Beta-Arrestin HTS for Positive Allosteric Modulators of the Human D2 Dopamine Receptor: Potentiators | potentiation, % (no concentration beside the values) | DiscoveRx D2 beta-arrestin cells, luminescence, 90 min; 100% = 57 uM dopamine signal | D(2) dopamine receptor (Homo sapiens), P14416 | actives 0.23% (n = 360,000); active = potentiation of 50% or more; inconclusive = 30% to 50%; inactive = 30% or less;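 note: compound concentration not given in the record; tested on top of an EC20 dose of dopamine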
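PathHunter beta-arrestin assay in DiscoveRx D2 cells. Compounds were added with an EC20 of dopamine (50 nM final) for 90 min at 37 deg C. Luminescence was read 1 h after detection reagent, with 57 uM dopamine as the EC100 control.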
Numbers without * were called inactive; ? = inconclusive; . = no result given; & = joins results of further samples; [ ] = dose if it differs, or a comment.

SMILES	CtBP-E1A inh	PINK1 modulator	TRPV1 potentiator	Six1-Eya2 inh	D2 ag	Sfp inh	D2 PAM
Cc1ccc(C)c(NC(=S)/C(=C(\[O-])c2ccc(Cl)s2)[n+]2ccccc2)c1	-9.8	1.2%	-19.2	-14.6	-0.8	50.1µM*	-0.4
CCc1ccc(CNC(=O)C(=O)NCCc2ccc(OC)c(OC)c2)cc1	0.7	3.1%	.	2.8	-1.1	.	-7.4
CCOc1ccc(S(=O)(=O)Oc2ccc3ccccc3c2)cc1	18.7	6.9%	8.3	39.6	0.4	5.5%	-4.4
COc1cc(/C=N/N=C(N)N)ccc1OCc1ccccc1Cl	-7.6	-0.4%	4.7	-7.4	-0.8	25.1µM*	4.7
Cc1ccccc1NC(=O)COC(=O)c1n[nH]c(=O)c2ccccc12	-25.0	-1.2%	3.4	10.0	0.3	.	-20.3
Cc1ccc(/C=N/N2C(=S)SC(C)(C)C2N(O)C(=O)Nc2ccc([N+](=O)[O-])cc2)cc1 (stereo not given)	18.3	?	2.9	-0.6	-6.3	12.6%	-32.7
CC(C)Cn1c(-c2ccncc2)n[nH]c1=S	5.1	-0.9%	-9.3	9.3	-6.5	?	-2.3
CNCCCCOc1ccccc1-c1ccccc1	-10.7	5.4%	-26.2	13.2	-2.1	?	-36.7
CCN(CC)c1ncnc2c1ncn2[C@H]1CN(Cc2ccc(F)cc2)C[C@@H](CO)O1	-0.4	0.4%	.	-8.0	-4.3	.	-13.5
CCCn1c(N)c(Sc2ccc(C)cc2)c(=O)n(CCC)c1=O	3.6	1.5%	4.8	-0.5	4.3	14.0%	-22.4
CCOC(=O)C1=C(COC(=O)CSc2ccc(Br)cc2)NC(=O)NC1C (stereo not given)	16.1	13.6%	4.1	-0.5	0.1	.	4.2
COc1cccc(-c2cc(C(=O)Nc3ccccc3SC)no2)c1	9.2	8.0%[38.3 µM]	-3.1	10.9	0.5	-27.7%	5.8
CCOc1ccc(NC(=O)CN(C)CC(=O)Nc2ccccc2C#N)cc1OCC	-4.3	-0.1%	5.0	-10.5	-2.7	-10.3%	-3.5
Cc1sc2ncn(CC(=O)NCC3COc4ccccc4O3)c(=O)c2c1S(=O)(=O)N1CCCCC1 (stereo not given)	-20.4	6.5%	3.1	4.1	-3.2	23.9%	-6.5
COc1cc2ncnc(NCc3ccccc3F)c2cc1OC	-0.7	0.0%	7.9	-5.8	-0.9	5.1%	-10.4
O=[n+]1c2c(n([O-])c3cc(F)c(F)cc31)CCCC2	-9.0	1.4%	7.0	-20.7	6.0	3.3%	21.5
Cc1nc(-n2cc(F)c(=O)[nH]c2=O)c2nc(C)oc2n1	1.6	4.5%	-12.0	2.5	-1.4	17.1%	5.2
COc1ccc(CCNC(=O)C2CCN(S(=O)(=O)N3CC(C)CC(C)C3)CC2)cc1OC (stereo not given)	8.4	1.8%[38.3 µM]	-6.7	-2.1	-3.4	7.9%	-2.3
CCN(CC)c1nc2c(s1)C(=O)NCCC2	-4.1	-0.4%[38.3 µM]	?	2.1	-0.8	9.1%	-4.6
Cc1ccnc(NC(=O)c2ccc(S(=O)(=O)c3ccccc3)cc2)c1	.	0.8%	-7.6	20.0	0.8	7.0%	-7.6
COC(=O)c1ccc(NC(=O)COc2ccc(C3C(C#N)=C(N)Oc4c3ccc3ccccc43)cc2OC)cc1 (stereo not given)	-3.3	12.4%[38.3 µM]	11.6	-2.9	1.6	19.1%	10.6
O=c1cc(-c2c(O)c3ccccc3n(Cc3ccccc3)c2=O)[nH][nH]1	-25.4	1.6%	5.4	-22.2	-0.6	6.5%	-4.5
CC1(C)CC(=O)C(C=NC2CCCCC2)=C(O)C1	6.0	-0.1%	-7.0	-4.4	-1.9	12.0%	-6.1
CCC(c1nnnn1CCc1ccccc1)N(Cc1ccco1)Cc1cc2cccc(C)c2[nH]c1=O (stereo not given)	-9.6	0.6%	-4.9	-17.5	-3.8	0.9%	-33.8
C=CCOc1cccc(C2/C(=C(\O)c3ccc(F)cc3)C(=O)C(=O)N2CCN(C)C)c1 (stereo not given)	-4.0	0.6%	0.3	-10.5	-2.4	5.7%	-7.2
COc1ccc(C2CC(=O)N(C)c3ccccc3S2)cc1OC (stereo not given)	5.3	2.5%	-16.7	1.5	4.0	3.0%	9.9
CCC(C(=O)NCc1ccco1)n1nc(C)n2c(cc3occc32)c1=O (stereo not given)	-2.1	1.2%	-19.5	-1.0	-3.0	0.8%	-14.8
CCOC(=O)C1=CCC(c2cccc(C)c2)N(S(=O)(=O)c2ccc(C)cc2)C1 (stereo not given)	18.4	0.6%	.	13.2	-5.0	.	0.5
Cc1ccc(CNc2ncc(-c3ccc4c(c3)OCO4)n2C)cc1	-2.1	1.8%	-6.3	-13.4	-2.0	-25.2%	-13.5
O=[N+]([O-])c1ccc(Cn2cc(-c3cccc(C(F)(F)F)c3)nn2)cc1	-17.9	-0.4%	5.1	0.5	1.0	-0.2%	-11.4
COc1ccc(OC)c(NC(=O)[C@@]2(CC(=O)O)CC(/C=C/c3ccccc3)=NO2)c1	-1.8	-0.1%	-2.2	-7.3	8.6	14.1%	-3.6
S=c1[nH]c2ccc(Cc3ccc4[nH]c(=S)[nH]c4c3)cc2[nH]1	-3.4	14.7%	0.3	-6.7	8.5	28.2µM*	-2.7
CN(C(=O)COC(=O)Cc1c(F)cccc1Cl)c1c(N)n(Cc2ccccc2)c(=O)[nH]c1=O	-12.0	-2.0%	5.8	6.2	-5.3	.	10.0
CN1c2ccccc2C(O)=C(C(=S)Nc2ccc(Cl)cc2)S1(=O)=O	-2.7	?	5.4	-1.8	-2.3	7.1%	-2.0
COc1ccc(C)cc1N(CC(=O)N1CCCC1)S(=O)(=O)c1ccccc1	7.1	-1.4%	9.6	5.1	0.8	19.2%	-4.7
CCN(CC)CCN(C(=O)CCS(=O)(=O)c1ccccc1)c1nc2c(C)cc(C)cc2s1	1.5	4.2%	1.1	-1.7	-5.0	4.4%	-33.5

Record cards, from the list above. Values in the order: CtBP-E1A inh | PINK1 modulator | TRPV1 potentiator | Six1-Eya2 inh | D2 ag | Sfp inh | D2 PAM
Record of CCOC(=O)C1=CCC(c2cccc(C)c2)N(S(=O)(=O)c2ccc(C)cc2)C1 (stereo not given) : 18.4 | 0.6% | . | 13.2 | -5.0 | . | 0.5
Record of COc1ccc(OC)c(NC(=O)[C@@]2(CC(=O)O)CC(/C=C/c3ccccc3)=NO2)c1 : -1.8 | -0.1% | -2.2 | -7.3 | 8.6 | 14.1% | -3.6
Record of COc1ccc(C)cc1N(CC(=O)N1CCCC1)S(=O)(=O)c1ccccc1 : 7.1 | -1.4% | 9.6 | 5.1 | 0.8 | 19.2% | -4.7

(listing goes on)
SMILES	CtBP-E1A inh	PINK1 modulator	TRPV1 potentiator	Six1-Eya2 inh	D2 ag	Sfp inh	D2 PAM
O=C(C1CC1(c1ccccc1)c1ccccc1)N1CCOCC1 (stereo not given)	4.1	0.3%	-8.5	6.9	0.0	17.5%	3.5
CCC(C)(C(=O)NC1CCCCC1)N(Cc1ccco1)C(=O)c1cnccn1 (stereo not given)	-1.0	-1.9%	8.1	5.6	-1.7	9.1%	-3.5
CNC(=S)N1CCc2cc(OC)c(OC)cc2C1COc1ccc(OC)cc1 (stereo not given)	-1.0	8.6%	-2.7	-2.1	-3.1	0.4%	-1.2
CCOc1cc(-n2ncc(C#N)c2N)nc(SC)n1	2.0	.	-1.3	-0.6	0.1	-4.7%	-4.0
CCCNC(=O)c1ccc(SCC(=O)N(CC)CC)c([N+](=O)[O-])c1	0.7	0.6%	-38.6	0.7	-5.0	5.9%	-23.0
CC1CCCN(S(=O)(=O)c2ccc(NC(=O)CCN3C(=O)c4ccccc4C3=O)cc2)C1 (stereo not given)	-2.9	-0.2%	-4.7	2.5	-3.3	9.8%	-4.0
O=C(Oc1ccc[nH]c1=O)c1cc([N+](=O)[O-])cc([N+](=O)[O-])c1	.	2.4%	-35.2	4.2	?	?	6.2
CC(=O)NC1=NN(C(C)=O)C(C)(c2cccc([N+](=O)[O-])c2)S1 (stereo not given)	2.7	0.8%	-0.1	2.1	-2.6	15.6%	-2.6
CC(=O)Nc1ccc(S(=O)(=O)NNC(=O)COc2cccc3ccccc23)cc1	-3.3	1.2%	26.1	4.4	-0.3	-3.2%	-4.9
CCc1c(C(=O)OC)nnc2cc(C)nn12	32.6	1.9%	4.8	14.8	-3.2	12.4%	28.9
OCCCNC(=S)Nc1ccc(Nc2ccccc2)cc1	-3.8	-0.1%	-0.6	-3.1	-1.9	3.4%	-0.7
COC(=O)c1ccc(/C=C/C(=O)OCC(=O)c2ccc[nH]2)cc1	0.9	-0.3%	.	-0.2	0.5	.	-5.5
O=C(NCC1CCCCN1)c1cc(OCC(F)(F)F)ccc1OCC(F)(F)F (stereo not given)	-1.7	0.2%	-13.5	2.6	-5.9	14.1%&-0.5%&10.5%	-12.4
Cc1cccc(N(CC(=O)NC2CCCC2)C(=O)CCC(=O)Nc2ccccn2)c1	7.2	0.7%	-11.1	0.3	-0.6	4.4%	-7.7
O=C(NCCCn1ccnc1)C1CCCN(S(=O)(=O)c2cc(Cl)ccc2Cl)C1 (stereo not given)	-3.1	6.8%	1.5	0.2	-8.8	16.2%	-6.1
O=c1c2[nH]c3ccc(Br)cc3c2ncn1Cc1ccncc1	-4.4	4.4%	-2.1	1.6	4.2	-7.6%	0.3
CCOc1ccccc1N(CC(=O)NC(C)(C)C)C(=O)Cn1nnc(-c2ccc(C)o2)n1	-6.8	3.8%[38.3 µM]	22.7	0.2	-1.7	-11.7%	-4.7
CCOC(=O)c1cc(CC)sc1NC(=O)c1cccc(N2C(=O)CCC2=O)c1	3.2	6.9%	-1.7	3.3	-0.7	-16.2%	-7.1
COc1cccc(-c2c(C(=O)N/N=C/c3cccs3)nnn2-c2nonc2N)c1	-8.1	-0.6%	6.1	-4.0	-7.4	19.2%	-4.5
